A1 inh – caspase 3/7 activation in MEF A1-2A-BIM cells, primary screen, A1 inhibitor project, cell-based, luminescence, HTS; Caspase-Glo 3/7 luminescence, 3 h; percent of clofoctol response, vehicle zero; caspase activation, % (concentration not given with the values); AID 2462, 2010; hit rate 0.066% among 330,000;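 active means over half of replicate activation scores above 10%, or exactly half above 10 with the replicate mean above 10; inconclusive means replicate mean below 10 yet half the replicates above 10; inactive means over half of replicates below 10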;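 further: wells of about 30 µL received 50 nL stock; many hits fall short of the cut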
Calb FLC – C. albicans growth inhibition with fluconazole, primary screen, CaCi-2 strain, Alamar Blue fluorescence. hit rate 0.57% among 300,000. C. albicans CaCi-2 (fluconazole-resistant clinical isolate) + fluconazole, 48 h. growth inhibition, % (no concentration beside the values);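 active means most replicates above 75%; inconclusive means exactly half above 75%; inactive means most below 75%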;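 further: all wells also contain fluconazole at 8 µg/ml as a sub-toxic cotreatment; 0% = median of DMSO wells and 100% = median of geldanamycin control wells; wells of about 8 µL received 7.5 nL stock; the first replicate is given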
T cruzi inh – inhibitors of intracellular T. cruzi growth, primary screen, luminescence, NIH3T3 host cells. AID 1885, 2009. inhibition, % (test concentration not listed). T. cruzi beta-gal in NIH3T3, 90 h. hit rate 1.4% among 300,000;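 active means mean inhibition across valid replicates above about 55%, limit read from the data; inconclusive means mean below that limit but half or more replicates reach it; inactive means mean below it, under half of replicates reach it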;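 further: signal also drops with host cell toxicity which is not excluded here; 0% = plate median of DMSO wells and 100% = zero luminescence signal; higher percent means less beta-gal luminescence so fewer parasites; stock transfer was 50 nL into about 50 µL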
Ecoli rRNA inh – reduced GFP signal of wild-type E. coli, primary screen, bacterial rRNA inhibitor project, GFP/RFP fluorescence, OD600, single point; AID 720706, 2013; hit rate 1.6% among 350,000; GFP signal change (wild-type ribosome), % (concentration not given with the values); E. coli WT GFP vs humanized-ribosome RFP mutants, 24 h; stronger effect = lower value; DMSO median 0, no signal -100;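 active means significant combined selectivity score with lowered wild-type GFP, culture density cut under 30%, mutant RFP and density less affected; inactive means any of these conditions unmet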; further: one replicate is shown; some compounds called inactive have numbers as strong as hits
Vif TR-FRET – inhibitors of Vif binding to APOBEC3G peptide, primary screen, biochemical, TR-FRET, GST-Vif 1-94, biotin-A3G peptide, dose response retest (AID 1117319); inhibition, %; hits with a dose series show IC50 in µM; hit rate 0.57% among 260,000; TR-FRET GST-Vif / biotin-A3G peptide binding; higher % means a stronger effect; test concentration not given here; strong numbers were not always called active; Virion infectivity factor (Human immunodeficiency virus type 1 group M subtype B (isolate …;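 active means above the screen mean plus three standard deviations and confirmed in dose response; inconclusive means results disagree or hit not tested in dose response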;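 further: Vif residues 1-94 fused to GST binding biotinylated APOBEC3G peptide 110-148; 0% = full assay without inhibitor and 100% = GST in place of GST-Vif; retest series ran down from 100 µM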
Beta apoptosis – inhibitors of cytokine-induced beta cell apoptosis, primary screen, luminescence; hit rate 0.8% among 300,000; INS-1E cytokine-induced death, ATP luminescence, 48 h; percent of positive-control rescue, neutral wells zero; protection from apoptosis, % (no concentration beside the values);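 active means all replicates at 75% or more, or half of them and the mean; inconclusive means half reach 75% but not the mean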;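 further: 0% = cytokine-treated negative control wells and 100% = positive control rescue; higher means more ATP so stronger rescue from cytokine killing; wells of about 40 µL received 100 nL stock; the first replicate is given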
RanGTP-Imp inh – inhibitors of RanGTP-importin-beta interaction, primary screen, biochemical, FRET, CFP-Ran, YFP-importin-beta, homogeneous; Ran GTPase (GTP-bound) - importin-beta complex; cell-free CFP-Ran/YFP-importin-beta FRET ratio; inhibition, % (no concentration beside the values); hit rate 1.1% among 300,000;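 active means most replicates above 15%; inconclusive means exactly half above 15%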;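 further: 0% = DMSO wells and 100% = Ran loaded with GDP instead of GTP; wells of about 40 µL received 100 nL stock; the first replicate is given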
AF4-AF9 inh – inhibitors of AF4 peptide binding to AF9, primary screen, biochemical, AlphaScreen, biotin-AF4 peptide, FLAG-AF9, single point; hit rate 0.47% among 350,000; inhibition, % at 10 µM; Protein AF-9 (Homo sapiens), P42568;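 active means every replicate reaching a set inhibition limit, whatever the replicate mean, cut at about 25% in these data; inconclusive means mean inhibition reaches that limit but some replicates miss it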;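 further: 0% = plate neutral control median and 100% = total signal loss; the record names both 10 and 1 µM as test concentration; the first replicate is given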
Target sequence (P42568 whole entry, looked up): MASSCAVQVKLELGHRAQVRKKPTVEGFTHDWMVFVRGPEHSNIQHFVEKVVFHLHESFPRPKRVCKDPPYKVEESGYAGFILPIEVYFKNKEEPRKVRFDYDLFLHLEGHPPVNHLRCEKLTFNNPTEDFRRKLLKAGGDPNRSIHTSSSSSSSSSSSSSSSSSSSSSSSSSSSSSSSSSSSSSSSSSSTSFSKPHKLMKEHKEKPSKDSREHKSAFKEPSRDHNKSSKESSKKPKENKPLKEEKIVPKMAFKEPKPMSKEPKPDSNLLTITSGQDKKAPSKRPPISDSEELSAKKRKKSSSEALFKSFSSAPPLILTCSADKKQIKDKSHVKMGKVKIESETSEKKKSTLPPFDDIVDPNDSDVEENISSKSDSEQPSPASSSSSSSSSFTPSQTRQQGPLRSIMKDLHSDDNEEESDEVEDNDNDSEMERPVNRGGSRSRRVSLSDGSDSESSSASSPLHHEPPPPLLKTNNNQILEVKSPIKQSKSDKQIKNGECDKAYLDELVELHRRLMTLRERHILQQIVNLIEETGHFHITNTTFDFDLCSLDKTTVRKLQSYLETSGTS
Ecoli rRNA inh OD600 – recorded beside Ecoli rRNA inh, whose call it bears; OD600 change, %; measured here: OD600 growth;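 optical density of the mix in the first replicate; 0 = DMSO median and -100 = no signal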
Ecoli rRNA inh RFP – further read-out of Ecoli rRNA inh, marked with its call; RFP signal change, %; measured here: RFP humanized mutant strains;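 first replicate; 0 = DMSO median and -100 = no signal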
Numbers without * were called inactive; ? = inconclusive; / = not tested or not shown; & = joins results of further samples. Only part of the results is shown. The share of hits here may be higher or lower than overall.

SMILES	A1 inh	Calb FLC	T cruzi inh	Ecoli rRNA inh	Ecoli rRNA inh OD600	Ecoli rRNA inh RFP	Vif TR-FRET	Beta apoptosis	RanGTP-Imp inh	AF4-AF9 inh
COc1cccc(-c2cc(C(F)(F)F)nc(N3CCN(c4ccccc4)CC3)n2)c1	0.4	2	20	/	/	/	4%	6	-0.4	/
Cc1cccc(OCCNC(=O)CCNS(=O)(=O)c2ccc3ccccc3c2)c1	0.1	/	/	-26	-64	-0.3	-5%	2	/	3.8
COc1ccc(/C(N)=N/OC(=O)C2CCC(=O)N2S(=O)(=O)c2ccc(C)cc2)cc1OC (stereo unspecified)	-0.4	4	-11	/	/	/	9%	1	-2.9	/
CCCCOC(=O)c1cccc(NC(=O)CC)c1	-0.4	4	1	/	/	/	27%	-2	-0.5	/
O=C1Nc2ccccc2C12Nc1ccccc1S2 (stereo unspecified)	-1.6	5	/	/	/	/	3%	2	0.8	/
O=C(CSc1nnc(-c2ccco2)n1CC1CCCO1)N1CCCCC1 (stereo unspecified)	1.6	-3	0	/	/	/	6%	-1	6.9	/
Cc1c(NC(=O)c2noc3c2CCc2ccccc2-3)c(=O)n(-c2ccccc2)n1C	-1.4	8	8	0	7	0.2	/	-2	-5.2	-5.3
Cc1cc(NC(=O)COC(=O)C(C)Oc2ccc(Cl)cc2Cl)no1 (stereo unspecified)	0.4	0	-4	4	10	-2.3	/	-7	-2.6	1.2
O=C(NNC(=O)C1CC1)c1ccc(F)cc1F	0.9	/	/	6	13	-1.1	-9%	-1	/	-2.1
O=C(CCN1C(=O)c2ccccc2C1=O)Nc1cc(F)ccc1F	0.4	-2	-1	/	/	/	1%	0	-4.8	/
Cc1cccc(N(NC(=O)C(C)(C)O)C(=O)c2ccccc2)c1	1.2	5	-28	/	/	/	4%	-2	1.1	/
CCn1c(=O)c2sccc2n2c(CCCC(=O)N3CCN(c4ccccn4)CC3)nnc12	-0.8	7	-14	-1	4	-0.3	15%	3	1.7	2.4
COc1ccc(C(CC(=O)c2ccc(C)cc2)Nc2ccc([N+](=O)[O-])cc2)cc1 (stereo unspecified)	0.1	-28	2	-7	0	-0.2	-7%	-6	-4.1	4.7
CCN(C[C@H]1N[C@@](CC)(C(=O)OC)[C@H]2C(=O)N(C)C(=O)[C@@H]12)S(=O)(=O)c1ccc(F)cc1	-1.2	/	/	0	2	1.8	5%	4	/	-1.9
COc1ccc(-n2nc(C(=O)NCC(=O)NCc3cccc(F)c3)c3ccccc3c2=O)cc1Cl	-1.5	2	1	6	18	-1.0	/	-3	4.0	-2.7
Cc1cc2[nH]c(=O)c(=O)[nH]c2cc1S(=O)(=O)Nc1cccc(Cl)c1	1.8	-27	-24	1	-10	2.9	/	2	7.1	-0.6
COc1ccc(N(CC(=O)NCc2ccco2)S(=O)(=O)c2ccccc2)cc1	0.4	-9	1	-1	-2	1.3	/	-3	?	2.2
CCOc1ccc(NC(=O)CN(C2CCCCC2)S(C)(=O)=O)cc1	0.7	9	10	/	/	/	26%	0	2.9	/
CCCn1c(SCC(=O)Nc2cccc(C)n2)nc2c1c(=O)n(C)c(=O)n2C	0.1	17	19	20	7	2.7	/	0	1.5	-1.5
CN1CCN(S(=O)(=O)c2cccc(C(=O)N(Cc3nnc(-c4ccc(Cl)cc4)o3)C3CC3)c2)CC1	-0.4	-5	1	-1	1	-1.5	-7%	1	-0.7	0.6
Cc1ccc(OC(=O)c2cccnc2)cc1	-0.1	-26	-11	4	4	0.3	-2%	-4	4.7	0.3
Cc1cc2c3c(c1C)C1(C(=O)N3C(C)(C)CC2C)C(C#N)=C(N)OC2=C1C(=O)CC(C)(C)C2 (stereo unspecified)	1.4	-1	0	/	/	/	16%	4	-4.7	/
CCOC(=O)Cc1c(C)nc2c(-c3ccc(Cl)cc3)c(C)[nH]n2c1=O	0.0	-5	4	-11	-12	-2.1	7%	8	-3.0	-18
CCCCNC(=O)c1cccc(C(=O)NCCCC)c1	-0.3	-7	2	/	/	/	-1%	2	-0.6	/
O=C(Oc1coc(CSc2ncccn2)cc1=O)c1cccs1	0.9	-3	1	7	3	-3.4	12%	5	3.0	-2.3
Later entries:
SMILES	A1 inh	Calb FLC	T cruzi inh	Ecoli rRNA inh	Ecoli rRNA inh OD600	Ecoli rRNA inh RFP	Vif TR-FRET	Beta apoptosis	RanGTP-Imp inh	AF4-AF9 inh
CN1CCN(c2ccccc2NC(=O)c2ccc(N3CCOCC3)c([N+](=O)[O-])c2)CC1	0.9	0	-1	11	10	1.8	/	0	3.6	9.9
CC1CCCCN1C(=O)COC(=O)C1CCN(S(=O)(=O)c2c(Cl)cccc2Cl)CC1 (stereo unspecified)	-1.0	-6	2	-10	-15	0.8	/	-1	?	-0.6
Cc1ccc(C(=O)Nc2cccc(C(F)(F)F)c2)cc1NC(=O)c1nccn1C	-0.7	4	-23	5&5	20&6	1.3&-2.9	10%	2	2.1	-0.1&-2.3
Cc1cccc(C)c1NC(=O)CN(C)C(=O)c1cccc(S(=O)(=O)N2CCN(c3ccccc3)CC2)c1	0.2	7	20	-12	-18	-1.2	/	1	2.8	0.5
CCOC(=O)CSc1nnc(NC(=O)C2CC(=O)N(c3ccc(F)cc3)C2)s1 (stereo unspecified)	0.8	-4	-9	1	2	2.9	9%	0	-1.8	-1.1
CCOc1ccc(S(=O)(=O)N(CC)CC(=O)NCc2cccnc2)cc1	-0.4	0	-15	1	-2	-0.1	/	3	6.8	1.1
CC(C)Oc1cccc(C(=O)NC(=S)Nc2cccc(NC(=O)c3ccccc3Cl)c2)c1	0.3	-3	14	/	/	/	-3%	4	3.4	-3.5
Cc1cccc(N2CCN(Cc3nc(-c4cccc(Cl)c4)oc3C)CC2)n1	-0.1	-35	10	/	/	/	/	8	5.0	4.0
CC(C)CC1NC(=S)N(Cc2ccccc2)C1=O (stereo unspecified)	0.8	-11	13	9	3	-1.5	25%	6	7.0	-6.4
CC1(C)CC(=O)CC(=Nc2ccc(C(=O)O)cc2)C1	-0.4	-3	-1	/	/	/	6%	4	45*	/
CCN1CCN(C(=S)NC(=O)c2cccc(Br)c2)CC1	0.6	/	/	1	4	1.1	/	4	/	-0.1
CCCn1nnnc1NC(=O)COc1ccc(Br)cc1	0.6	-3	-6	-11	-11	-4.0	-1%	-6	4.3	-6.1
Cc1ccccc1Cn1cc(S(=O)(=O)CC(=O)N2CCCCC2)c2ccccc21	-0.7	1	20	/	/	/	/	-5	?	/
Cn1nc(-c2ccccc2)c(-c2nc(-c3ccccc3Cl)no2)c1Cl	-1.2	-3	-14	/	/	/	-7%	7	-1.5	/
O=C(c1cccc(S(=O)(=O)N2CCOCC2)c1)N(Cc1nnc(-c2ccccc2Cl)o1)C1CC1	-0.5	0	17	1	0	-0.7	7%	0	-2.1	0.2
Nc1cc(Cl)nnc1Cl	/	0	-5	2	7	-0.7	3%	/	-2.0	-2.2
COc1ccc(-c2nn(-c3ccccc3)cc2C(=O)N/N=C/c2ccc([N+](=O)[O-])o2)cc1	-0.2	8	90*	-2	11	3.7	-3%	47	-0.7	-2.7
O=C(COC(=O)c1cnccn1)NCc1ccccc1	0.2	4	-16	/	/	/	4%	-2	3.7	/
Cc1cccn2c(=O)c3cc(C(=O)NC4CCCC4)n(C)c3nc12	0.5	1	5	-19	-5	-3.4	/	-4	-0.8	-4.7
O=C(c1ccc2c(c1)OCO2)N1CCCC(c2ccccc2)C1 (stereo unspecified)	0.2	-9	-12	-28	-24	-5.8	17%	7	-3.3	7.4
Cc1ccc(N(C(=O)C2CCC(=O)N2)C2(C(=O)NC3CCCC3)CCCCC2)cc1 (stereo unspecified)	0.4	4	-12	/	/	/	26%	-1	2.7	/
Cc1ccc(NC(=O)c2cc(S(=O)(=O)N3CCCCC3)c[nH]2)cc1C	0.6	-5	-16	14	2	18	/	-4	?	7.6
CN(C)c1ccc(/C=C(/NC(=O)c2ccccc2Cl)C(=O)NCCN2CCOCC2)cc1	0.0	/	9	7	-3	-0.7	/	-2	-3.6	1.6
FC(F)(F)c1cc(CCN2C(=S)NC[C@@H]2Cc2ccccc2)cc(C(F)(F)F)c1	-0.6	-9	9	0	1	-0.4	5%	1	5.2	-0.4
CCOC(=O)[C@H](CCc1ccccc1)N[C@H]1CCc2ccccc2N(CC(=O)O)C1=O	-1.2	/	-9	3	6	-1.2	/	-8	?	0.8
O=C(c1ccco1)N1CCN(Cc2nc3ccc([N+](=O)[O-])cc3c(=O)n2-c2ccccc2F)CC1	1.0	3	22	/	/	/	15%	2	-0.4	/
CCOc1cc(C(c2c(C)[nH][nH]c2=O)c2c(C)[nH][nH]c2=O)ccc1O	1.3	-25	-5	/	/	/	/	1	-2.7	/
CC(C)NC(=S)N=Nc1c(O)[nH]c2ccc([N+](=O)[O-])cc12	-0.9	-18	-18	-10	2	-2.4	23%	34	?	4.1
Cc1cc(C)c(OCCCn2ccnc2)c(C)c1	-0.3	-24	22	0	-10	-1.7	/	-5	6.0	-0.2

Part of the list above in a different format.
Compound,A1 inh,Calb FLC,T cruzi inh,Ecoli rRNA inh,Ecoli rRNA inh OD600,Ecoli rRNA inh RFP,Vif TR-FRET,Beta apoptosis,RanGTP-Imp inh,AF4-AF9 inh
CC(C)Oc1cccc(C(=O)NC(=S)Nc2cccc(NC(=O)c3ccccc3Cl)c2)c1,0.3,-3,14,/,/,/,-3%,4,3.4,-3.5
Cc1cccc(N2CCN(Cc3nc(-c4cccc(Cl)c4)oc3C)CC2)n1,-0.1,-35,10,/,/,/,/,8,5.0,4.0
CC(C)CC1NC(=S)N(Cc2ccccc2)C1=O (stereo unspecified),0.8,-11,13,9,3,-1.5,25%,6,7.0,-6.4

Some of the entries so far, with bars between the fields:
SMILES | A1 inh | Calb FLC | T cruzi inh | Ecoli rRNA inh | Ecoli rRNA inh OD600 | Ecoli rRNA inh RFP | Vif TR-FRET | Beta apoptosis | RanGTP-Imp inh | AF4-AF9 inh
CCN1CCN(C(=S)NC(=O)c2cccc(Br)c2)CC1 | 0.6 | / | / | 1 | 4 | 1.1 | / | 4 | / | -0.1
CCCn1nnnc1NC(=O)COc1ccc(Br)cc1 | 0.6 | -3 | -6 | -11 | -11 | -4.0 | -1% | -6 | 4.3 | -6.1
